Assay outcomes deposited in PubChem by National Center for Advancing Translational Sciences (NCATS).
TRPML1 agonist: activates the human TRPML1 channel | activation, % (test concentration not listed) | 410,000 compounds, 0.12% hits | Q9GZU1 | TRPML1-expressing cells, Ca2+ dye fluorescence, FDSS; host cell line not named in the record; reference of the full effect not given here; in the data active = activation above about 50%; inconclusive = about 30% to 50%; inactive = below about 30%; note: 0% is about no effect; the text of the record puts the active cut at 80%
Target sequence (Q9GZU1 whole entry, looked up): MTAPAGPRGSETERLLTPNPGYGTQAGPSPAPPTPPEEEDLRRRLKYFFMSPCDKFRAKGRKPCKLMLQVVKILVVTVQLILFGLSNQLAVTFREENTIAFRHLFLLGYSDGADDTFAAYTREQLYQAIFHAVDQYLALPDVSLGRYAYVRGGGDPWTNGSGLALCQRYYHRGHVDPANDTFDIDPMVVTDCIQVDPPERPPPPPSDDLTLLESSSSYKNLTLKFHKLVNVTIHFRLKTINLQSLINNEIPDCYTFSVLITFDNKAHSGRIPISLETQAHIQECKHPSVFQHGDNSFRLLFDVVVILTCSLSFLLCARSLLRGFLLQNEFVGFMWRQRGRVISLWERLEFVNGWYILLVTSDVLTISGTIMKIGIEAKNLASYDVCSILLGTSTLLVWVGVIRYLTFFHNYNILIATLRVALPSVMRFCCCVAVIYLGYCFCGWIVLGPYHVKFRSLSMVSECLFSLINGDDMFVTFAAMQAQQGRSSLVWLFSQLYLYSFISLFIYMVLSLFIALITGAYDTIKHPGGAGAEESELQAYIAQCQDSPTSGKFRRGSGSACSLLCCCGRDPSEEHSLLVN
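Cells: TRPML1-DL, 1X Tet inducer, ~16 h at 37 degrees C/5% CO2. Dye: ABD Ca8 no-wash + quencher, 45-90 min RT. Read: 10 s baseline, compound add, 110 s agonist phase; 54-4 EC80 (4uM final), 110 s antagonist phase.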
Six1-Eya2 blk: Six1/Eya2 interaction inhibition | AlphaScreen GST-Six1/His-Eya2 binding, biochemical; hits give low values; control for the full effect not named in the record | activity change, % (no concentration beside the values) | AID 651725 | 360,000 compounds, 0.56% hits | Q15475+O00167; in the data active = activity change below about -65%; inconclusive = about -30% to -65%; inactive = above about -30%; note: % is set by controls: 0 for no effect and ±100 for the full control effect
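Homogeneous AlphaScreen proximity assay pairing GST-Six1 with His-tagged Eya2 (added as 5X mix: 250 nM and 500 nM) in 50 mM Tris pH 8.0, 300 mM NaCl, 1 mM TCEP. Glutathione donor and nickel acceptor beads; 1 h, 37 °C, dark.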
D2 agonist: human D2 receptor agonism in beta-arrestin assay | activation, % (test concentration not listed) | 360,000 compounds, 0.084% hits | DiscoveRx PathHunter D2 beta-arrestin, luminescence, 90 min; 100% = 57 uM dopamine signal | P14416 | AID 624465; in the data active = activation above about 40%; inconclusive = about 15% to 40%; inactive = below about 15%; note: compound concentration not given in the record; the text of the record calls up to 30% inactive
Target sequence (P14416 whole entry, looked up): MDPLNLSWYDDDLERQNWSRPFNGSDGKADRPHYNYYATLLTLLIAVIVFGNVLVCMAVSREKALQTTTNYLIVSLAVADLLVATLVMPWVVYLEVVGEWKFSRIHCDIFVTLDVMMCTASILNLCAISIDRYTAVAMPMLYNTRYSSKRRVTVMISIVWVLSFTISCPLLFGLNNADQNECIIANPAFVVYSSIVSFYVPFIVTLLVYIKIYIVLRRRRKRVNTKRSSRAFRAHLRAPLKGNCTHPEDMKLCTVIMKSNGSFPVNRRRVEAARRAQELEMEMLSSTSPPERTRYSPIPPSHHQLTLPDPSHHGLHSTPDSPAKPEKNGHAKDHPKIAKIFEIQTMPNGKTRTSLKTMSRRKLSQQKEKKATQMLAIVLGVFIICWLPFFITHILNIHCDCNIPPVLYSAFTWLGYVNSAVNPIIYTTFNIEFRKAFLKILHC
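Agonist mode: compounds alone added to overnight-plated D2 PathHunter cells for 90 min at 37 C, with 57 uM final dopamine (EC100) defining full response. Beta-arrestin recruitment detected by chemiluminescent reagent, read after 1 h at ambient temperature.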
D2 potentiator: human D2 receptor positive allosteric modulation; DiscoveRx D2 beta-arrestin cells, luminescence, 90 min; 100% = 57 uM dopamine signal; P14416; AID 624464; potentiation, % (concentration not given with the values); 360,000 compounds, 0.23% hits; active = potentiation of 50% or more; inconclusive = 30% to 50%; inactive = 30% or less;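 note: tested on top of an EC20 dose of dopamine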
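PathHunter beta-arrestin assay in DiscoveRx D2 cells. Compounds were added with an EC20 of dopamine (50 nM final) for 90 min at 37 deg C. Luminescence was read 1 h after detection reagent, with 57 uM dopamine as the EC100 control.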
CtBP-E1A inh: blocks the CtBP interaction with E1A. AlphaScreen GST-E1A/His-CtBP binding, 1536-well; hits give low values; control for the full effect not named in the record. 340,000 compounds, 0.49% hits. activity change, % (concentration not given with the values); in the data active means activity change below about -65%; inconclusive means about -30% to -65%; inactive means above about -30%; note: % is set by controls: 0 for no effect and ±100 for the full control effect
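AlphaScreen with 125 nM GST-E1A and 125 nM His-CtBP (5X stocks) in Tris pH 8.0, 300 mM NaCl, BSA, Tween 20, TCEP. Compounds preincubated 2 h at 37 deg C, then glutathione donor/nickel acceptor beads added for 1 h at 37 deg C in dark.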
PINK1 expr mod: PINK1 expression modulation; 410,000 compounds, 0.2% hits; Potency, µM (highest dose often 76.6 µM), inactives show at the highest dose activation (PINK1 increase), actives largely listed as activators; PINK1 immunofluorescence, high-content cytometry, 24 h; AID 624263; active = well fitted activation curve with a large enough effect; inconclusive = small, poorly fitted or top-dose-only effect; inactive = flat fitted curve, though single readings scatter; cell line not stated here;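 note: potency is the fitted concentration of half-maximal effect; % of control where 0% means no effect; nearly all actives have a fitted effect of over 65% in size; a mitochondrial uncoupler was the plate control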
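PINK1 protein, normally rapidly degraded, was detected by immunofluorescence after 24 hour compound treatment of a stable cell line. Titration data (5 concentrations) came from laser-scanning cytometry, with CCCP-treated wells as controls.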
Starred values were filed as active, the others as inactive; ? = inconclusive; · = not tested or not shown; & = joins results of further samples; [ ] = remark or other dose.

SMILES	TRPML1 agonist	Six1-Eya2 blk	D2 agonist	D2 potentiator	CtBP-E1A inh	PINK1 expr mod
CCN(Cc1cc2cc(C)ccc2[nH]c1=O)C(=O)c1cccc([N+](=O)[O-])c1	0.2	10	0.3	-10	9	9.0%
O=C(CCNS(=O)(=O)c1ccccc1)OCc1ccc([N+](=O)[O-])cc1	-0.6	-4	-3.6	-10	7	1.7%
COc1cc(-c2cc(N3C(=O)Nc4ccccc4N3O)n[nH]2)cc(OC)c1OC	-0.3	12	-1.1	-4	25	1.9%
CCOC(=O)C1CCN(S(=O)(=O)c2ccccc2)CC1	2.9	4	2.2	-7	0	-0.9%
Cc1cccc(NC(=O)CSc2nnc(-c3ccc(S(=O)(=O)N4CCOCC4)cc3)n2C)c1	-0.6	4	0.9	-1	1	-1.2%[38.3 µM]
N#Cc1nc(-c2ccccc2F)oc1NCc1ccccc1	-0.5	0	3.8	0	10	3.2%
CC1(C(=O)N(CC(=O)NC2CCCC2)Cc2ccccc2)CC(=O)N=C2C=CC=CN21 (stereo not drawn)	-0.3	7	-1.9	-1	4	-0.7%
C=CCOC(=O)N1CCC2CC1c1c(-c3ccc(C(F)(F)F)cc3)cccc12 (stereo not drawn)	-0.7	9	-4.6	5	6	?
O=C(COc1ccc(Br)cc1Br)NC(=O)NC1CCCC1	0.7	4	2.8	-9	-10	9.3%
COc1ccc(CNS(=O)(=O)c2cc(Br)cc3c2N(C(C)=O)C(C)C3)cc1 (stereo not drawn)	-1.5&-0.8	-16	-2.3	-14	-1	-3.9%&0.4%
CC(Sc1nncn1-c1ccccc1)C(=O)Nc1cccc([N+](=O)[O-])c1 (stereo not drawn)	-0.5	7	-0.8	-16	3	-1.1%
CCn1nc(C)cc1-c1n[nH]c(=S)n1N	-0.8	0	2.5	-34	-1	0.8%
CC(C)(O)C#Cc1ccc(C(=O)N2CCN(c3ccc(F)cc3)CC2)cc1	1.8	-3	7.3	-3	·	0.6%
O=C(Nc1cccc(S(=O)(=O)N2CCOCC2)c1)c1ccc(N2CCOCC2)c([N+](=O)[O-])c1	0.2	-8	-0.5	-2	-14	1.0%
Cc1ccc(N(C)C(=O)c2cnn(-c3ccccc3)c2C)c(C)c1	1.0	4	0.2	-2	6	1.4%
O=C(NC1CCOc2ccccc21)c1ccc(Cl)nc1 (stereo not drawn)	-0.1	5	11	-1	4	6.0%
COc1ccccc1-c1sc2ccccc2c1-c1ccc(OCCN2CCCCC2)cc1	0.9	-27	12	·	?	-1.2%
CCc1ccccc1NC(=S)N(Cc1cccc(C)c1)c1cccnc1	-0.4	-3	-2.3	-4	-3	1.6%
COc1ccc(/C=C2\N=C3CCCCCN3C2=O)cc1OC	0.5	20	-4.0	-10	0	-2.1%
Cc1ccc(C(=O)NCCOc2cccc(C)c2)cc1	1.8	2	-6.2	-12	-1	-0.8%
O=C(c1ccc2ccccc2n1)N1CCN(S(=O)(=O)c2ccccc2)CC1	-0.4	0	-1.6	8	·	1.6%
O=C(CN(c1ccc(F)cc1)S(=O)(=O)c1ccc2c(c1)OCCO2)NCc1ccccc1	0.8	3	0.7	-3	9	-4.8%[38.3 µM]
CC(C)NC(=S)N1CCCN(c2ncccc2[N+](=O)[O-])CC1	-0.7	-3	-1.9	-2	·	1.1%
O=C(Nc1nc(-c2ccco2)c(-c2ccco2)s1)c1cnccn1	-0.7	?	1.4	-14	-11	11%
NC(Cc1ccc(Cl)cc1)c1csc(Nc2ccc(C(=O)c3ccccc3)cc2)n1 (stereo not drawn)	-0.3	-13	2.1	2	1	-1.2%
CCc1ccc(NC(=S)N(CCN2CCCCC2)Cc2ccco2)cc1	0.8	-8	2.1	-18	10	?
COc1ccc(CCN(C)C(=O)c2cc(-c3ccccc3)nc3ccc(C)cc23)cc1OC	0.4	-7	-1.0	-26	1	0.1%
CCOc1ccc(CNC(=O)C(CC)n2nc(C)n3c(cc4occc43)c2=O)cc1OC (stereo not drawn)	-0.8	9	0.1	1	5	-0.6%
O=C(NNc1ccccc1Cl)C(O)(c1cccc(C(F)(F)F)c1)c1cccc(C(F)(F)F)c1	4.8	1	4.4	8	9	?
CC(C)OC(=O)CSc1nc(-c2ccc(F)cc2)cc(C(F)(F)F)n1	2.0	27	-2.3	-14	12	0.9%
C(=N\NCc1ccccc1)/c1ccc2nccnc2c1	-0.6	-1	-5.3	-21	·	0.9%
Cc1ccc(-c2nn(CC(=O)N3CCOCC3)c(=O)c3ccccc23)cc1S(=O)(=O)N(C)C	-0.2	0	-2.8	-9	-23	-0.6%
CC(C)NC(=O)Nc1cccc2c1O[C@H](CN(C)C(=O)NC1CCCCC1)[C@H](C)CN([C@H](C)CO)C2=O	0.1	4	-4.1	-5	-21	0.3%
COC(=O)C(NC(=O)c1ccc(F)cc1)(Nc1nc(C)cs1)C(F)(F)F (stereo not drawn)	-0.5	-6	-2.0	6	6	2.2%
N#Cc1ccccc1CN1C(=O)c2ccccc2S1(=O)=O	-1.0	3	5.7	-5	·	0.3%
CC1=NN(C(=O)c2csc(C)c2C)C(O)(C(F)(F)F)C1 (stereo not drawn)	0.0	0	-2.7	-13	2	0.4%
N=c1oc2c3c4c(cc2cc1C(=O)Nc1ccccc1)CCCN4CCC3	0.0	23	3.7	23	27	11µM*
CC1(C)Cc2nc3sc4c(NCCO)ncnc4c3cc2CS1	0.9	-17	1.8	2	-11	4.1%
COc1ccc(/C=N/NC(=O)c2cc(-c3ccccc3OC(C)C)nc3ccccc23)cc1CN1CCOCC1	0.3	-10	-4.2	-11	17	2.7%
O=C(Nc1ccccc1)c1cccnc1Nc1ccccc1	0.5	-3	0.3	-1	-8	1.9%
CCOc1cc(C(=O)OCC(=O)c2c(C)[nH]c3ccccc23)ccc1OCC(=O)N1CCOCC1	0.4	-6	-3.7	-5	-5	?
COc1cccc(NC(=O)c2sc3ncn(CC(=O)N4CCN(c5ccccn5)CC4)c(=O)c3c2C)c1	0.8	-5	0.5	8	-10	1.0%
CCOc1ccc(OCC)c(NC(=O)CSc2nc3c(c(=O)n(C)c(=O)n3C)n2CC)c1	0.6	1	-1.5	-4	4	?
COc1cc(C(=O)NCC2CCCO2)cc(OC)c1OC (stereo not drawn)	0.0	4	-1.3	-3	2	-1.3%[38.3 µM]
Cc1cc(=O)oc2c(C)c(OC(C)C(=O)N3CC[C@@]4(O)CCCC[C@H]4C3)ccc12 (stereo partly drawn)	·	4	-5.8	-27	-3	0.2%
O=C(COC(=O)c1cc(-c2cccc(Br)c2)nc2ccccc12)NCC1CCCO1 (stereo not drawn)	4.0	0	-4.4	-1	-15	2.8%
COc1cc(/C=C2/SC(=Nc3ccc(O)cc3)NC2=O)cc(OC)c1O	-0.3	-71*	8.5	5	0	5.1%
O=S1(=O)N=C(N2CCN(Cc3ccc4c(c3)OCO4)CC2)c2ccccc21	0.4	-2	1.8	-22	-6	-7.3%[38.3 µM]
O=C(O)COc1ccccc1/C=N/NC(=O)c1cc(-c2ccccc2)nc2ccccc12	-1.1	-29	-1.0	-3	-26	-1.4%
CCCC(=Nc1ccccc1OC)C1=C(O)CC(c2ccccc2)CC1=O (stereo not drawn)	1.6	0	-2.3	14	20	4.3%
Cc1c(-c2ccccc2)oc2c(C(=O)N3CCN(c4ccc([N+](=O)[O-])cc4)CC3)cccc2c1=O	0.6	-3	-0.9	-3	3	0.7%
CCOC(=O)CSc1nnc(NC(=O)CCc2ccccc2)s1	0.3	1	3.1	-6	·	2.5%
Cc1cc(C(=O)NNC(=O)C(C)(C)Oc2ccc(Cl)cc2)c(C)o1	0.3	-2	3.3	-6	·	0.3%
Cc1cccc(C(=O)NCC(=O)NCCCSc2ccccc2)c1	1.2	-1	-3.2	-35	-3	-2.7%
CN(Cc1ccccc1)CC(O)COc1ccc(CNCc2ccc(Cl)s2)cc1 (stereo not drawn)	3.4	-12	5.7	-16	-5	0.2%
CN1CCC(NC(=S)Nc2cccc([N+](=O)[O-])c2)CC1	0.4	-7	-3.8	-7	·	0.8%
Cc1cccc(N2C(=O)c3cccc4c(N5CCCCC5)c([N+](=O)[O-])cc(c34)C2=O)c1C	2.0	-2	1.4	1	6	2.9%
CCONC(=O)Nc1ccccc1	0.0	-3	-1.1	-18	-1	-1.9%
O=C(Oc1cccc(/C=N/NC(=O)c2ccccn2)c1)c1ccc([N+](=O)[O-])cc1	-0.2	-6	3.3	22	-1	6.5%
O=C(OCC(=O)N1CCOCC1)c1ccc(Cl)nc1	0.5	8	0.4	-2	12	-0.9%[38.3 µM]

In another format: results already given
> O=C(NNc1ccccc1Cl)C(O)(c1cccc(C(F)(F)F)c1)c1cccc(C(F)(F)F)c1
- TRPML1 agonist = 4.8
- Six1-Eya2 blk = 1
- D2 agonist = 4.4
- D2 potentiator = 8
- CtBP-E1A inh = 9
- PINK1 expr mod = ?

> CC(Sc1nncn1-c1ccccc1)C(=O)Nc1cccc([N+](=O)[O-])c1 (stereo not drawn)
- TRPML1 agonist = -0.5
- Six1-Eya2 blk = 7
- D2 agonist = -0.8
- D2 potentiator = -16
- CtBP-E1A inh = 3
- PINK1 expr mod = -1.1%

> CCOc1cc(C(=O)OCC(=O)c2c(C)[nH]c3ccccc23)ccc1OCC(=O)N1CCOCC1
- TRPML1 agonist = 0.4
- Six1-Eya2 blk = -6
- D2 agonist = -3.7
- D2 potentiator = -5
- CtBP-E1A inh = -5
- PINK1 expr mod = ?

> CC(C)OC(=O)CSc1nc(-c2ccc(F)cc2)cc(C(F)(F)F)n1
- TRPML1 agonist = 2.0
- Six1-Eya2 blk = 27
- D2 agonist = -2.3
- D2 potentiator = -14
- CtBP-E1A inh = 12
- PINK1 expr mod = 0.9%

Following part:
SMILES	TRPML1 agonist	Six1-Eya2 blk	D2 agonist	D2 potentiator	CtBP-E1A inh	PINK1 expr mod
CCC1=NN2C(=N)/C(=C/c3c(C)nn(-c4ccccc4)c3Cl)C(=O)N=C2S1	0.3	-5	1.5	12	-17	-1.1%
CCc1ccccc1NC(=O)C(C)n1nc([N+](=O)[O-])c(Br)c1C (stereo not drawn)	0.6	7	2.1	-7	9	?
C[C@H](NC(=O)c1nc[nH]c1C(=O)N[C@@H](Cc1ccccc1)C(=O)OC(C)(C)C)c1ccccc1	2.7	-8	-2.7	-6	-2	4.0%
Oc1ccccc1/C=N/Nc1ncc(Br)cn1	-0.1	?	-9.0	-51	8	10%
Cc1ccc(NS(=O)(=O)c2cc(C(=O)NCCSC3CCCCC3)ccc2C)cc1	1.0	-13	-0.4	-8	4	2.7%[38.3 µM]
CC(=O)N1CCc2cc(S(=O)(=O)NCCC(=O)Nc3ccc4c(c3)OCCO4)ccc21	-0.3	5	-1.0	-12	-3	-0.5%
COc1ccccc1CN1CCN(C(=O)c2ccco2)CC1	-0.9	14	67*	53*	-9	-0.1%
COc1ccc(Cn2nnc3c(C)n[nH]c(=O)c32)cc1	1.4	-1	-3.3	-3	5	-0.3%
COc1ccc2nc(/C=N/NC(=O)[C@@H]3CCCN3C(=O)OC(C)(C)C)ccc2c1	1.0	-20	8.4	-3	-13	-0.3%
CCCCOC(=O)c1ccc(NC(=O)c2cnccn2)cc1	0.0	5	-3.5	0	9	0.1%
O=C(c1cc2ccccc2s1)N1CCOCC1	-0.5	-2	-2.4	-8	-2	-1.0%
